VDR inh = inhibitors of human vitamin D receptor | VDR-SRC2-3 peptide fluorescence polarization, 2 h | Potency, µM, inactives show max response, negative = inhibition, hits mostly inhibitors | hit rate 0.93% among 400,000 | AID 504847; active = well fitted inhibition curve with a large enough effect; inconclusive = small, poorly fitted or top-dose-only effect, or another doubt; inactive = no such curve, though single readings can be large or run the other way; also: series mostly up to about 120 µM
Target sequence (P11473 whole entry, looked up): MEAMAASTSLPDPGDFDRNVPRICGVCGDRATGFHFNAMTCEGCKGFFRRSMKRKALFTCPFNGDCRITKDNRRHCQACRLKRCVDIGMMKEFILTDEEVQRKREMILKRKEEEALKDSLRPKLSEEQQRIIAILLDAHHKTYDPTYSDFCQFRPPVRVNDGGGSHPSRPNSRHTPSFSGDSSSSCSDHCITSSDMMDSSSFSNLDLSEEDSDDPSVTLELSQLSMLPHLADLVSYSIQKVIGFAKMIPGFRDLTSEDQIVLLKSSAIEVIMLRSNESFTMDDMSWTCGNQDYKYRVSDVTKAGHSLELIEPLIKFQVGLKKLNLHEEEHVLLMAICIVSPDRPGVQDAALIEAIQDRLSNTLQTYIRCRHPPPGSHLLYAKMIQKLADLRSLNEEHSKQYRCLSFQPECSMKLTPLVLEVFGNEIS
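Reagent solutions, kept cold and dark, are dispensed first; compounds are then pinned in at 23 nl, plates briefly spun, and incubated 2 h at ambient temperature. Inhibition of VDR–SRC2-3 peptide binding is read by fluorescence polarization.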
* hit, by the source's call; ? = inconclusive; & = joins results of further samples; [ ] = remark or other dose. % is scaled to controls: 0 for no effect and ±100 for the full control effect; potency is read from the fitted curve at half-maximal effect. Only part of the results is shown. The share of hits here may be higher or lower than overall.

SMILES	VDR inh
COP(=O)(OC)C(NC(=O)/C=C/c1ccccc1)C(Cl)(Cl)Cl (stereo not given)	4%
C[C@]12CC[C@H](N)CC1=CCC1C2CC[C@@]2(C)C1CC[C@@H]2O (stereo not given in full)	2%
CC(C)CNP(=S)(c1ccccc1)C(C)(C)C (stereo not given)	6%
Cc1ccc(-n2c(O)c(C=NCC3CCCO3)c(=O)[nH]c2=O)c(C)c1 (stereo not given)	11%
O=c1[nH]c(=O)n(Cc2ccco2)c(O)c1C=NCCN1CCOCC1	5%
O=C(Nc1ccc2c(c1)OCO2)c1cccn(Cc2cccc(F)c2)c1=O	11%
CC(=O)N1N=C(c2cccnc2)OC1c1ccccc1Cl (stereo not given)	-14%
CCOc1cc2c(cc1OCC)-n1cccc1C(c1cccc(OCC)c1O)NC2 (stereo not given)	-15%
C[C@@]12CC(c3ccoc3)OC(=O)C1CC[C@@]1(C)C2C2C=C[C@@]1(O)C(=O)O2 (stereo not given in full)	-5%
O=C(Nc1ccc(Cl)cc1C(=O)c1ccccc1Cl)c1ccco1	18%
COc1ccc(NC(=O)c2cn(CCC#N)nc2-c2cccc(Br)c2)cc1	-4%
COc1ccc(-[n+]2c(-c3ccccc3)cc(-c3ccc(C)cc3)cc2-c2ccccc2)cc1	6%
O=C(N1CCCCCC1)N1CC1	6%
COC(=O)C1=C(c2ccc(F)cc2F)C[C@@H]2CC[C@H]1N2C(=O)N1CCC(C)CC1	-8%
CC1CN=C(Nc2cccc3ccccc23)S1 (stereo not given)	14%
CCC(C)C(=O)OC1C(O)C2C(CN3CC(C)CCC3[C@]2(C)O)C2C[C@]34O[C@@]5(O)C(OC(=O)C(C)(O)C(C)O)CCC3(C)C5C(OC(C)=O)C(OC(C)=O)C4[C@@]21O (stereo not given in full)	-2%
CCCC(C)C1(CC)C(=O)NC(=S)NC1=O (stereo not given)	6%
CCOc1ccc(NC(=O)c2c(C)nn(Cc3ccccc3)c2Cl)cc1	-6%
C#CCN1CC(=O)N(COC(=O)[C@@H]2[C@@H](C=C(C)C)C2(C)C)C1=O	-13%
CC(=O)Nc1ccc(OC(=O)N(C)C)cc1	-8%
CCN(CC)CCO[C@H]1CC[C@@]2(C)C(=CC[C@@H]3[C@H]2CC[C@]2(C)C(=O)CC[C@H]32)C1	1%&-3%
COc1cccc(-n2c(-c3ccoc3)nc3ccccc3c2=O)c1	-11%
Clc1ccc(Cn2ccnc2)cn1	-1%
O=C(O)/C=C/C(=O)O	-17%
Cc1cccc(-n2c(/C=C/c3cn(C)c4ccccc34)nc3ccccc3c2=O)c1	-7%

Pulled one by one from the list above:
SMILES	VDR inh
C[C@]12CC[C@H](N)CC1=CCC1C2CC[C@@]2(C)C1CC[C@@H]2O (stereo not given in full)	2%
COc1ccc(NC(=O)c2cn(CCC#N)nc2-c2cccc(Br)c2)cc1	-4%
COP(=O)(OC)C(NC(=O)/C=C/c1ccccc1)C(Cl)(Cl)Cl (stereo not given)	4%

The main list resumes with the five entries that preceded the break.
SMILES	VDR inh
CCN(CC)CCO[C@H]1CC[C@@]2(C)C(=CC[C@@H]3[C@H]2CC[C@]2(C)C(=O)CC[C@H]32)C1	1%&-3%
COc1cccc(-n2c(-c3ccoc3)nc3ccccc3c2=O)c1	-11%
Clc1ccc(Cn2ccnc2)cn1	-1%
O=C(O)/C=C/C(=O)O	-17%
Cc1cccc(-n2c(/C=C/c3cn(C)c4ccccc34)nc3ccccc3c2=O)c1	-7%
O[C@H]1C2CCC1C(N1CCCCC1)CC2 (stereo not given in full)	-16%
Cn1c(=O)oc(=O)c2ccccc21	16%
CCN1CCN(Cc2cc(Br)cc(OC)c2O)CC1	8%
O=C(COc1ccc2c3c(c(=O)oc2c1)CCC3)N1C[C@H]2C[C@@H](C1)c1cccc(=O)n1C2	1%
COC(=O)C1=C(c2ccc(OC)c(OC)c2)C[C@@H]2CC[C@H]1N2C(=O)N1CCc2cc(OC)c(OC)cc2C1	5%
O=C1CCCC2C3CC(CN12)C1CCCCN1C3 (stereo not given)	16%
CCCCCn1c(SCCCC)nc2c1c(=O)[nH]c(=O)n2C	?
Nc1ccc(Br)cc1C(=O)c1ccccc1	-6%
c1ccc(CN2CCc3nc4ccccc4cc3C2)cc1	16%
COC(=O)C1=C(c2ccc(F)cc2OCc2ccccc2)C[C@@H]2CC[C@H]1N2C(=O)NCCN1CCOCC1	-1%
CCCN1CCC2(CC1)NC(CO)(CO)CO2	14%
O=C(N/N=C/c1c(O)n(C2CCCCC2)c(=S)[nH]c1=O)c1ccccc1O	-5%
O=C(O)C1CN(CP(=O)(O)O)CCN1 (stereo not given)	10%
C=C(C)CSc1nnc([C@@H](N)Cc2ccccc2)o1	11%
O=C(C[N+]12CCC(CC1)C(C(O)(c1ccccc1)c1ccccc1)C2)c1ccc(Br)cc1 (stereo not given)	-10%
Cn1c(O)c(C2=NNC(c3ccc(Cl)cc3)C2)c(=O)n(C)c1=O (stereo not given)	36%[activator]
COC(=O)C1=C(c2cccc(OCc3ccccc3)c2)C[C@@H]2CC[C@H]1N2C(=O)NCc1ccc2[nH]ccc2c1	-17%
CC1OC(OC2C(O)CC(OC3C(O)CC(OC4CCC5(C)C(CCC6C5CCC5(C)C(C7=CC(=O)OC7)C(O)CC65O)C4)OC3C)OC2C)CC(O)C1O (stereo not given)	0%
CCOc1ccc(-n2c(-c3cccs3)nc3ccccc3c2=O)cc1	1%
CC(C)(Cl)[N+](=O)[O-]	6%
COC(=O)C1=C(c2ccc(F)cc2F)C[C@@H]2CC[C@H]1N2C(=O)N1CCCC1	-17%
CC1CC(C)CN(C(=O)COC(=O)c2cn(C)c3ccccc23)C1 (stereo not given)	-6%
C[C@]12CCC3C(CC[C@H]4C[C@H](O)CC[C@]34C)C1CC[C@@H]2C(=O)CO (stereo not given in full)	-7%
CCCCCCCCN=Cc1c(O)[nH]c(=O)[nH]c1=O	-10%
CNC(=O)Oc1cccc(-c2cn3cc(OC(=O)NC)ccc3n2)c1	3%

(more compounds)
SMILES	VDR inh
Cn1c(O)c(/C=C2/C=CC=N2)c(=O)[nH]c1=O	13%
C#CCOC(=O)C1=CCCN(C)C1	1%&-1%&5%
C[C@]12C=CC(=O)C=C1CC[C@@H]1C2CC[C@]2(C)OC(=O)CCC12 (stereo not given in full)	-5%&3%
Cc1noc(C)c1C(=O)N1CCC2(CCCN(CC(C)C)C2)CC1	9%
COCCNC(=O)c1c(N)n(Cc2ccco2)c2nc3ccccc3nc12	13%
Cc1ccc(-c2nc(CN3C(=O)CN=C(c4ccccc4Cl)c4cc(Cl)ccc43)c(C)o2)cc1	1%
COC(=O)C(O)(c1ccc(N(C)C)cc1)C(F)(F)F (stereo not given)	-5%
COc1ccccc1N1C(=O)NC(=O)/C(=C/c2ccc3c(c2)Cc2ccccc2-3)C1=O	?
O=[N+]([O-])c1cc(F)c(N2CCCCC2)cc1Br	-3%
COC(=O)C1=C(c2cccc(OC)c2OC)C[C@@H]2CC[C@H]1N2C(=O)NCCCOC(C)C	-9%
Cc1ccc2c(c1)c(C1=c3ccccc3=NC1=O)c(O)n2C	?
Cc1ccc(Cn2cccc(C(=O)Nc3ccc4c(c3)OCCO4)c2=O)cc1	21%
CCCCn1c(O)c(C=NC2CC3CCC2(C)C3(C)C)c(=O)[nH]c1=O (stereo not given)	-19%
Oc1cc2c(cc1CN1CCN(c3ccc(F)cc3)CC1)OCO2	-1%
Cn1c(O)c(/C=N/c2ncccn2)c(=O)n(C)c1=O	-21%
CC(C)c1nn2c(=O)cc(COC(=O)Cc3ccccc3)nc2s1	8%
COc1cc2c(c(OC)c1OC)-c1ccc(O)c(=O)cc1C(NC(C)=O)CC2 (stereo not given)	10%&5%
COc1ccc(C2SCC(=O)Nc3c2c(C)nn3C2CCOC(C)(C)C2)cc1OC (stereo not given)	-8%
CC(NC1=NCCS1)c1ccccc1 (stereo not given)	-29%
CCCCCCNC(=O)N[C@@H](Cc1ccc(O)cc1)C(=O)NCCC[C@H]1CN2C(=NC[C@H]2C)N1CC1CCC1	-12%
COc1ccc(C(CN(C)C)C2(O)CCCCC2)cc1 (stereo not given)	-9%&9%&0%
N#CC(C#N)=C(C#N)c1ccc(Nc2ccccc2)cc1	50µM*
CN1CCN(Cc2ccccc2C(F)(F)F)CC1	-5%
COc1ccc(CCNC2CCCCCC2)cc1	1%
Cc1nnc(NC(=O)c2cccn(Cc3cccc(F)c3)c2=O)s1	13%

(next part)
SMILES	VDR inh
COc1ccccc1CCNC(=O)CCC(=O)N1CC2C[C@@H](C1)Cn1c2cccc1=O	-12%
COC1=CC(=O)O[C@H](/C=C/c2ccc3c(c2)OCO3)C1	5%
CCCn1c(C)cc(C=O)c1C	5%
C[C@]12CC[C@@H](O)CC1=CCC1C2CC[C@]2(C)C(=O)[C@H](F)CC12 (stereo not given in full)	-9%
CC1CN(c2ccccn2)C(C)CN1C(=O)C(O)(c1ccccc1)c1ccccc1 (stereo not given)	-2%
C=CCC1(CN2CCCC2=O)C(=O)NC(=O)NC1=O	14%
COC(=O)C1=C(c2cccc(OCc3ccccc3)c2)C[C@@H]2CC[C@H]1N2C(=O)NCc1ccc(N(C)C)cc1	-9%
CCCNC1=C(C)C(=O)C2=C(C1=O)C(COC(N)=O)[C@]1(OC)C3NC3CN21 (stereo not given in full)	-2%
O=C1NC(=O)C(=Cc2ccc(N3CCOCC3)o2)C(=O)N1	3%
COC(=O)C1=C(c2ccccc2OCc2ccccc2)C[C@@H]2CC[C@H]1N2C(=O)NCc1cccc(F)c1	-12%
NC[C@H](O)c1ccc(O)cc1	7%
O=P(N1CC1)(N1CC1)N1CCc2ccccc21	-12%
COC(=O)C1=C(c2cc3ccccc3o2)C[C@@H]2CC[C@H]1N2C(=O)NCc1ccc(C(F)(F)F)cc1	-6%
CCN1CC2C3CCC(C)(O3)C2C1 (stereo not given)	-6%
Cc1cc(C)nc(NC2=NCCS2)n1	-14%
O=c1[nH]c(=S)n(C2CC2)c(O)c1C=NCc1cccnc1	0%
Cn1c(O)c(/C=C2\C=c3ccccc3=NC2=O)c(=O)n(C)c1=O	79µM*
O=[N+]([O-])c1ccc(N2CCCCC2)c2ncccc12	1%
COC(=O)C(O)(c1ccc(NC(=S)NC(=O)c2ccc(Cl)cc2Cl)cc1)C(F)(F)F (stereo not given)	10%
CCCCn1c(O)c(C(C)=NC(C)c2ccccc2)c(=O)[nH]c1=O (stereo not given)	-1%
Cc1ccc2[nH]c3c(c2c1)CN(C(=O)CN1C[C@H]2C[C@@H](C1)c1cccc(=O)n1C2)CC3	0%
CCC1(C(=O)c2ccccc2)C2c3ccccc3OC(=O)C21C(C)=O (stereo not given)	10%
CC(=O)OC1CCC2(C)C3=C(CCC2C1(C)C)[C@]1(C)CCC(C(C)CCC=C(C)C)[C@]1(C)CC3 (stereo not given in full)	?
COc1ccc(Br)cc1C1SCC(=O)Nc2c1c(C)nn2-c1ccccc1C (stereo not given)	-9%
O=[N+]([O-])c1cnc2ccc3ccccc3c2c1	-11%

Exported bar-delimited: six of the compounds above
Compound | VDR inh
CC1CN(c2ccccn2)C(C)CN1C(=O)C(O)(c1ccccc1)c1ccccc1 (stereo not given) | -2%
C=CCC1(CN2CCCC2=O)C(=O)NC(=O)NC1=O | 14%
COC(=O)C1=C(c2cccc(OCc3ccccc3)c2)C[C@@H]2CC[C@H]1N2C(=O)NCc1ccc(N(C)C)cc1 | -9%
CCCNC1=C(C)C(=O)C2=C(C1=O)C(COC(N)=O)[C@]1(OC)C3NC3CN21 (stereo not given in full) | -2%
O=C1NC(=O)C(=Cc2ccc(N3CCOCC3)o2)C(=O)N1 | 3%
COC(=O)C1=C(c2ccccc2OCc2ccccc2)C[C@@H]2CC[C@H]1N2C(=O)NCc1cccc(F)c1 | -12%

Remaining list, next part:
SMILES	VDR inh
COc1ccc(C[C@@H]2NC[C@H](O)[C@@H]2OC(C)=O)cc1	0%
COC(=O)C1=C(c2c(C)noc2C)C[C@@H]2CC[C@H]1N2C(=O)NCCOc1ccccc1	2%
CCCc1cc(=O)oc2cc(OCC(=O)N3CCN(Cc4ccc5c(c4)OCO5)CC3)ccc12	7%
COC(=O)C1C2c3ccccc3OC1(C)N=c1s/c(=C/c3cn(C)nc3C)c(=O)n12 (stereo not given)	14%
COC(=O)C1=C(c2cc3ccccc3s2)C[C@@H]2CC[C@H]1N2C(=O)NCCO	-6%
Cc1ccc(NC(=O)c2snnc2C)cc1Cl	4%
Cc1cc(-c2ccc(N)c(C)c2)ccc1N	15%
C[C@]12CC[C@H]3C(CCC4(O)CC(O)CC[C@]34C=O)C1=CC[C@H]2c1ccc(=O)oc1 (stereo not given in full)	-16%
Cc1ccc(/C=C2/Sc3ccc(C(=O)N4CCC5(CC4)OCCO5)cc3NC2=O)cc1	-16%
CN1CCc2cc3c(c4c2[C@H]1Cc1ccccc1-4)OCO3	1%
c1ccc2c3c([nH]c2c1)CNCC3	-1%
O=C(Cc1ccccc1)N1CCN(Cc2cccnc2)CC1	-1%
COC(=O)CC1NC2CCCCC2NC1=O (stereo not given)	7%
O=C1NC(=S)NC(=O)C1=Cc1ccc(Br)s1	22µM*
COc1cccc(C(=O)C2CCCN(Cc3ccc4nonc4c3)C2)c1 (stereo not given)	-2%
O=[N+]([O-])c1ccc(NCCCN2CCOCC2)c2ncccc12	7%
C=C(C)C(Cc1c(OC)ccc(C(=O)/C=C/c2ccc(O)cc2)c1O)OO (stereo not given)	-24%
O=C1NC(=O)C(CCOc2ccccc2)(CCc2ccccc2)C(=O)N1	3%
Cc1cc(C)c(NC2=NCCCS2)c(C)c1	7%
CN(C)C(=O)Oc1ccc(-c2cn3cc(Cl)ccc3n2)cc1	-2%
N#Cc1ccccc1NC(=O)c1cccn(Cc2ccccc2)c1=O	22%
CCOC(=O)c1c(C)c(C(=O)N2CCC3(CC2)OCCO3)c(C)n1CC	-6%
O=C1CN(C(=O)COC(=O)Cc2ccccc2)c2ccccc2N1	-18%
O=C1NC(=O)C2C1C1(Cl)C(Cl)=C(Cl)C2(Cl)C1(Cl)Cl (stereo not given)	-19%
N#Cc1ccc(Cn2cc(C=O)c3ccccc32)cc1	-2%

Assay outcomes as filed in PubChem BioAssay.
